Autofluor counter: flagged as autofluorescent in microsphere protease counterscreen. 360,000 compounds, 3.1% hits. compound autofluorescence counterscreen, microsphere flow cytometry; active compounds read high. fluorescence intensity (no concentration beside the values);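 active means at least 3 SD above the mean of all compounds, about 16000 in these data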;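 further: 100 nL of 1 mM stock went into each well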
Active calls of the source: *. A portion of the library; rates above refer to the full screens.

SMILES	Autofluor counter
COCCc1ccc(OC2(C)CCN(Cc3cccc(OCOC)c3)C2)cc1 (centres undefined)	2955
COc1ccc(N2CCN(C(=O)c3ccc4c(c3)NC(=O)C(CSCc3ccccc3F)N4)CC2)cc1 (centres undefined)	5017
COCCNC(=O)C1(C)CCCN(C(=O)c2ccc(OC)cc2OC)C1 (centres undefined)	3970
Cc1ccc(C(O)c2ncc(-c3ccccc3C)[nH]2)cc1 (centres undefined)	2947
O=C(NCc1nnc(SCC(=O)N2CCOCC2)o1)c1ccccc1	2894
CCCNC(=S)NC1CC2CCCC(C1)N2Cc1ccccc1OC (centres undefined)	3690
CCCOc1ccc(C(=O)NC(=S)N2CCN(c3ncc4c(=O)c(C(=O)O)cn(CC)c4n3)CC2)cc1	4193
Cc1ccc(S(=O)(=O)N2CCCC2CNC(=O)C(=O)NCc2ccc3c(c2)OCO3)cc1 (centres undefined)	3028
COc1ccc(CC(N)c2csc(Nc3ccccn3)n2)cc1 (centres undefined)	3747
CC(OC(=O)Cc1n[nH]c(=O)c2ccccc12)C(=O)N(C)c1ccccc1 (centres undefined)	3841
NC(c1csc(Nc2cc(Oc3ccccc3)ncn2)n1)c1ccccc1Cl (centres undefined)	2898
CN1CCCC1(C)C(=O)Nc1ccc(-n2cccc2)cc1 (centres undefined)	3967
CC(=O)c1ccc(S(=O)(=O)Nc2ccc(C(=O)NCC(c3ccco3)N3CCCC3)cc2)cc1 (centres undefined)	3944
COCCNC(=O)C1Cc2c(-c3cccc(NC(C)=O)c3)ccnc2O1 (centres undefined)	3552
C=CCC(=O)N1CCC(n2nccc2NC(=O)c2ccc3c(c2)OCO3)CC1	3574
Cc1ccc([C@H]2C[C@@H](O)[C@H](n3cc(C4CC4)nn3)CN2CC2CCCCC2)cc1	3696
CC(CNC(=O)CCCn1c(=O)c2cccn2c2cccnc21)c1ccccc1 (centres undefined)	3768
COc1ccc(S(=O)(=O)N2CCCCC2c2cc(C(=O)Nc3ccc4c(c3)OCO4)no2)cc1 (centres undefined)	3301
CCCc1c(C(=O)N/N=C(\C)c2cc(C)sc2C)nnn1-c1nonc1N	2904
CN(C)S(=O)(=O)N1CCC(Oc2ccc(C(=O)N3CCCCCC3)cc2)CC1	3021
CCCCCCn1cc(CN2CC(N3CCCC3)CS2(=O)=O)nn1 (centres undefined)	4636
Cn1ccc2c(N3CCC3)cc3c(c21)C1CCC3O1 (centres undefined)	5984
Cc1ccccc1NC(=O)Nc1nc(CN(C)C)cs1	3087
CCOC(=O)N1CCN(C2=C(NS(=O)(=O)c3ccc(Br)cc3)C(=O)c3ccccc3C2=O)CC1	2730
C[C@H]1CN([C@@H](C)CO)C(=O)CCCn2nncc2CO[C@@H]1CN(C)C(=O)Nc1ccc(N2CCCCC2)cc1	3090
Carrying on:
SMILES	Autofluor counter
O=C(O)c1cc2ccccc2c2c1C(=O)c1ccccc1-2	3569
O=C(/C=C/[C@H]1O[C@@H](n2ccc(=O)[nH]c2=O)[C@H](O)[C@@H]1O)NCCc1cccs1	6051
C[C@@H]1CN([C@H](C)CO)C(=O)CCCn2nncc2CO[C@H]1CN(C)Cc1ccc(O)cc1	3479
C[C@H]1CN([C@@H](C)CO)C(=O)c2cc(Br)cnc2O[C@H]1CN(C)Cc1ccc(Oc2ccccc2)cc1	3658
CC(=O)NC(c1ccccc1)c1nc(/C=C/c2ccccc2)cs1 (centres undefined)	4227
COc1cccc(-c2oc3c(c2C(=O)OCCN(C)C)C(O)CCC3)c1 (centres undefined)	5747
COc1ccc(CCNC(=O)c2ccc(Br)o2)cc1Br	6050
COc1ccc(CNC(=O)Nc2nc(C(N)Cc3ccc(Cl)cc3)cs2)cc1 (centres undefined)	3833
CCc1nc2ccc(C(=O)Nc3cccc(OC)c3)cn2c1N(CC)CCOC	4135
COCCCN(C(=O)C1=COCCO1)c1c(N)n(Cc2ccccc2)c(=O)[nH]c1=O	2860
CCCS(=O)(=O)NC(=O)C1(C)CCCN(C(=O)c2ccc3snnc3c2)C1 (centres undefined)	3915
COc1ccc(Cl)cc1NC(=O)CSc1nc2[nH]ncc2c(=O)[nH]1	3178
CS(=O)(=O)c1ccc(Nc2nc(C(N)c3ccccc3Cl)cs2)cc1 (centres undefined)	4860
Cc1cccc(C)c1-n1nnnc1C(c1cc2ccccc2o1)N1CCN(C/C=C/c2ccccc2)CC1 (centres undefined)	6205
CC(C)c1ccccc1NC(=O)Nc1nc(C(N)Cc2ccc(C(F)(F)F)cc2)cs1 (centres undefined)	3774
CCOc1ccccc1C(=O)NCC(=O)NNC(=O)c1csc(N2CCOCC2)n1	3853
C=CCn1c(-c2ccccn2)n[nH]c1=S	5008
CC(C)C[C@H]1CN(CCCC[C@H]2CNC(=O)C(=O)N2Cc2ccccc2)C(=O)C(=O)N1CCc1ccccc1	5066
O=C(Nc1ccc2c(c1)OCO2)c1csc(COCCO)n1	3790
CC(C)C[C@H]1CNC(=O)C(=O)N1CC1CCN(CCc2ccccc2)CC1	6051
COc1ccccc1-c1cccc(-c2nc(C(=O)Nc3nccs3)cc3c2[C@H](CCO)N(C(C)=O)C3)c1	6680
Cn1nc(C(C)(C)C)cc1C(=O)N1CCCCC1c1cc(C(=O)N2CCOCC2)no1 (centres undefined)	3699
Cc1ccc([C@H]2C[C@H](O)[C@@H](n3cc(COC(=O)c4ccccc4)nn3)CN2CC2CCCCC2)cc1	3241
COc1ccc(CN2Cc3cc(N4CCOCC4)ccc3-n3nncc3C2)cc1	5668
CCOC(=O)C1(C)CCCN1C(=O)c1ccc(N(C)C)cc1 (centres undefined)	2859

Three neighbouring compounds from above:
SMILES	Autofluor counter
COc1cccc(-c2oc3c(c2C(=O)OCCN(C)C)C(O)CCC3)c1 (centres undefined)	5747
COc1ccc(CCNC(=O)c2ccc(Br)o2)cc1Br	6050
COc1ccc(CNC(=O)Nc2nc(C(N)Cc3ccc(Cl)cc3)cs2)cc1 (centres undefined)	3833

Later entries.
SMILES	Autofluor counter
Cc1ccccc1C(=O)OCC(=O)Nc1cccc(S(=O)(=O)N2CCCCC2)c1	2959
CS(=O)(=O)c1ccc(Nc2nc(C(N)COCc3ccccc3)cs2)cc1 (centres undefined)	2991
CC1=C(C(=O)N2CCOCC2)CC(CC(=O)NC2CC2)C(=O)N1Cc1ccccc1 (centres undefined)	2755
CCCCc1ccc(S(=O)(=O)NC(=O)C2(C)CCN2C(=O)C/C=C/c2ccccc2)cc1 (centres undefined)	3062
O=c1[nH]c(=S)[nH]c2c1C(c1ccc(Cl)c(Cl)c1)OC(CCc1ccccc1)C2 (centres undefined)	6481
CC1(C(=O)Nc2ccc3c(c2)OCCO3)CCN1C(=O)C1(c2ccc(Cl)cc2)CCC1 (centres undefined)	3597
CC(O)(c1cccnc1)c1nc(-c2ccc3ccccc3c2)cs1 (centres undefined)	4017
COC(=O)[C@@]1(Sc2ccc(C)cc2)CC(=O)N[C@@H]1c1ccco1	5820
CC(C)(O)C#Cc1cccc(-c2nc(C(=O)NCCCN3CCOCC3)cc3c2[C@H](CCO)N(S(=O)C(C)(C)C)C3)c1 (some centres undefined)	5544
CCOc1ccc(S(=O)(=O)N2CCOCC2)cc1NC(=O)CN1C(=O)NC(C)(C2CC2)C1=O (centres undefined)	3856
COc1ccc2c(c1)C1OCCNC1CC2 (centres undefined)	6800
CC(C)S(=O)(=O)NC(=O)C1(C)CCN1C(=O)Cc1ccccc1Cl (centres undefined)	3615
Cc1ccc(S(=O)(=O)N(C)C)cc1NC(=O)CN1C(=O)NC2(CCc3ccccc32)C1=O (centres undefined)	2823
Nc1nc2ccccc2n1S(=O)(=O)c1ccc([N+](=O)[O-])cc1	3690
Cc1ccc(C(=O)OCC(=O)Nc2ccc(C)c(S(=O)(=O)N3CCCCC3)c2)c(O)c1	3139
CC1CCCN(CCCNC(=O)c2ccc3c(c2)N(Cc2cccc(Cl)c2)C(=O)c2ccccc2S3=O)C1 (centres undefined)	2919
COCCN(Cc1ccc(C)cc1)C(=O)[C@H]1O[C@@H](n2cnc3c(N)ncnc32)[C@H](O)[C@@H]1O	5526
C(=C\c1ccccc1)/CN1CCN(C(c2cccc3ccccc23)c2nnnn2-c2ccc3c(c2)OCCO3)CC1 (centres undefined)	4263
CCc1ccc([C@@H]2CC(=O)[C@@H]3CN(S(=O)(=O)c4ccc(Cl)cc4)[C@H](c4ccc(C)cc4)C[C@@H]3N2S(=O)(=O)c2ccc(C)cc2)cc1	5616
COC(=O)[C@]12CCCCC=C1N(CCC1=CCCCC1)C(=O)[C@H](CC(=O)NCc1ccccc1)C2	5348
CCCc1nc2ccc(Cl)cn2c1Cc1ccccc1OC	6557
O=C(NCCc1ccccc1)Nc1nnc([C@H]2C[C@H](O)[C@@H](CO)O2)s1	2843
Cc1cccc(C)c1NC(=O)Nc1nnc([C@@H]2C[C@H](O)[C@@H](CO)O2)s1	3504
Cc1cccc(C)c1C(O)c1ncc(-c2ccc(F)cc2)[nH]1 (centres undefined)	3773
Nc1ccn(C2C=CC(CO)O2)c(=O)n1 (centres undefined)	5816
The listing continues.
SMILES	Autofluor counter
Cc1nc(C(F)(F)F)ccc1C(=O)N1CCC1(C)C(=O)NS(=O)(=O)c1ccc2ccccc2c1 (centres undefined)	3937
O=C(Nc1ccc2c(c1)OCCO2)C(c1ccnc2ccccc12)N1CCN(c2ccc(F)cc2)CC1 (centres undefined)	5945
COc1ccc(Nc2nnc(SCC(=O)NC3CCCC3)s2)cc1	2721
CN1CCN(c2ccc(CNC(=O)c3cccc4c(-c5ccc(F)c(F)c5)coc34)cc2)CC1	3446
CCOC(=O)C1(C)CCN1C(=O)c1ccc(SC(F)(F)F)cc1 (centres undefined)	2827
O=C(CNc1ccc(Br)cc1)Nc1ccc(S(=O)(=O)N2CCCCC2)cc1	3918
O=C(NCc1ccc(Cl)cc1)c1ccc(-c2ccc(F)c(F)c2)c2ccoc12	3335
Cc1ccc(-n2ncc3c(=O)n(-c4cccc(C)c4)c(=O)[nH]c32)cc1	3353
COCC(O)Cn1ccnc1N=Nc1ccccc1 (centres undefined)	5481
O=C1OCCC1=COCCOC=C1CCOC1=O	3474
Cc1ccccc1NC(=O)COC(=O)c1ccc(C)c(S(=O)(=O)N2CCCCC2)c1	2962
C#CCN(C[C@H]1[C@H](OC(=O)NC2CCCC2)[C@H](OC(=O)NC2CCCC2)C[C@@H](C(=O)OC)[C@H]1C(=O)OC)S(=O)(=O)c1ccc(C)cc1	3568
Cc1[nH]ccc2cc3nc4ccccc4c3cc12	3072
CCCNC(=O)C1(C)CCCN(C(=O)Cc2ccc(OC)cc2)C1 (centres undefined)	3658
COc1ccccc1C(=O)C1CCCN(C(=O)c2ccc(Cl)cc2)C1 (centres undefined)	3849
CCCCNC(=O)OC1CC2CC1[C@H]1CCCCN1C2=O (some centres undefined)	5740
COCc1cccc(-c2csc(C(O)c3ccc(F)c(OC)c3)n2)c1 (centres undefined)	3576
COc1ccc2oc(C(=O)OCC(=O)Nc3ccc(C)c(S(=O)(=O)N4CCOCC4)c3)c(C)c2c1	3890
CC1(C)OC2COC(c3[nH]nc4c(=O)[nH]c(=O)[nH]c34)C2O1 (centres undefined)	3882
CCc1ccc(C(O)c2ncc(-c3cccc(F)c3)[nH]2)cc1 (centres undefined)	3923
COc1cccc(-c2cc3nc(C)cc(N4CCN(C(=O)c5ccoc5)CC4)n3n2)c1	3828
CC1(c2nnnn2-c2ccc3c(c2)OCCO3)CCC(=O)N1CCOc1ccccc1 (centres undefined)	6008
O=c1oc(-c2ccc(Cl)cc2[N+](=O)[O-])nc2ccccc12	2991
CC1(C(=O)NCCc2c[nH]c3ccccc23)CCN1CC1CCCCC1 (centres undefined)	2980
CCCCC[C@H](C)N1C[C@H](COCc2ccccc2)Oc2cc(N3CC[C@@H](O)C3)ccc2S1(=O)=O	5052

Copied from the list:
Value for COc1ccccc1C(=O)C1CCCN(C(=O)c2ccc(Cl)cc2)C1 (centres undefined) under Autofluor counter: 3849
Value for CCCCNC(=O)OC1CC2CC1[C@H]1CCCCN1C2=O (some centres undefined) under Autofluor counter: 5740

Next part:
SMILES	Autofluor counter
CC(C)=CCn1c2ccc(NC(=O)Nc3ccc(N(C)C)cc3)cc2c(=O)n1C	3563
Cc1ccc(CN2CC(N3CCN(C4CCN(C)CC4)CC3)CS2(=O)=O)cc1 (centres undefined)	5836
CCOC(=O)N1CCN(C(=O)C[C@@H]2C[C@@]3(C(=O)OCC)CCCC=C3N(Cc3ccc4c(c3)OCO4)C2=O)CC1	5034
O=C(COC(=O)Cc1ccc(Cl)c(Cl)c1)NCCc1ccccc1	2886
COc1ccc(S(=O)(=O)N(C)C[C@H]2OCc3cnnn3CCCC(=O)N([C@H](C)CO)C[C@H]2C)cc1	3958
CC(=O)Nc1cc(-c2cccc(NS(C)(=O)=O)c2)cn2c(-c3ccc(F)c(Cl)c3)cnc12	3530
CC1(C(=O)Nc2ccc(F)cc2F)CCN1C(=O)Cc1ccccc1Cl (centres undefined)	3877
COc1cc(-c2ccc3cc(OC)c(OC)c(OC)c3c2)cc(OC)c1OC	4266
Cc1c(NC(=O)c2cccc(NC(=O)C(C)Oc3ccccc3)c2)c(=O)n(-c2ccccc2)n1C (centres undefined)	3971

Part of the list above, in markdown:
| SMILES | Autofluor counter |
| --- | --- |
| CC(C)=CCn1c2ccc(NC(=O)Nc3ccc(N(C)C)cc3)cc2c(=O)n1C | 3563 |
| Cc1ccc(CN2CC(N3CCN(C4CCN(C)CC4)CC3)CS2(=O)=O)cc1 (centres undefined) | 5836 |

Entries from the list above that contain a furan ring, fused or not (nine):
SMILES	Autofluor counter
CC(=O)c1ccc(S(=O)(=O)Nc2ccc(C(=O)NCC(c3ccco3)N3CCCC3)cc2)cc1 (centres undefined)	3944
COc1cccc(-c2oc3c(c2C(=O)OCCN(C)C)C(O)CCC3)c1 (centres undefined)	5747
COc1ccc(CCNC(=O)c2ccc(Br)o2)cc1Br	6050
Cc1cccc(C)c1-n1nnnc1C(c1cc2ccccc2o1)N1CCN(C/C=C/c2ccccc2)CC1 (centres undefined)	6205
COC(=O)[C@@]1(Sc2ccc(C)cc2)CC(=O)N[C@@H]1c1ccco1	5820
CN1CCN(c2ccc(CNC(=O)c3cccc4c(-c5ccc(F)c(F)c5)coc34)cc2)CC1	3446
O=C(NCc1ccc(Cl)cc1)c1ccc(-c2ccc(F)c(F)c2)c2ccoc12	3335
COc1ccc2oc(C(=O)OCC(=O)Nc3ccc(C)c(S(=O)(=O)N4CCOCC4)c3)c(C)c2c1	3890
COc1cccc(-c2cc3nc(C)cc(N4CCN(C(=O)c5ccoc5)CC4)n3n2)c1	3828
